Assay outcomes: PubChem, Broad Institute
T. gondii: Toxoplasma gondii ME49Luc growth in HeLa cells, luciferase, no IFN-y, primary screen (AID 1259421); T. gondii ME49Luc in HeLa, luciferase, 72 h, no IFN-y; stronger effect = lower value; reference of the scale and settings of repeat entries not given here; many of its hits are not listed in these tables; activity change, negative = inhibition, %; 6,400 tested, 9.6% active;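 active = activity change below -70%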;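 note: about 20 µM from a 10 mM stock diluted 500-fold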
* = called active by the depositor; & = joins results of further samples. Some of the compounds tested; the hit share may differ from the screen's.

Screening COC(=O)[C@@H]1CC(=O)O[C@H](C)C/C=C/C=C/[C@H](O)[C@H](C)C[C@H](CC=O)[C@H](OC2O[C@H](C)[C@@H](OC3C[C@@](C)(O)[C@@H](OC(=O)CC(C)C)[C@H](C)O3)[C@H](N(C)C)[C@H]2O)[C@H]1OC (some centres undefined) returned T. gondii -63.5.
Screening CCC(=O)OCC(=O)[C@@]1(OC(=O)CC)[C@@H](C)CC2C3CCC4=CC(=O)C=C[C@]4(C)C3(F)[C@@H](O)C[C@@]21C (some centres undefined) returned T. gondii -0.4.
`O=c1[nH]nc(Sc2ncc([N+](=O)[O-])s2)n1-c1ccc2c(c1)OCCO2` gave T. gondii 34.4.
`O=C(O)CCCCN(CCc1ccccc1OCc1ccc(CCc2ccccc2)cc1)Cc1ccc(C(=O)O)cc1` gave T. gondii 10.8.
Screening COc1cccc([C@H](O)C2CCN(CCc3ccc(F)cc3)CC2)c1OC returned T. gondii 11.0.
Screening Cc1c(NC(C)C)c(=O)n(-c2ccccc2)n1C returned T. gondii 0.6&4.0.
Screening O=C(O)CCC(=O)O returned T. gondii -23.1.
COc1ccc(CCN(C)CCCC(C#N)(c2cc(OC)c(OC)c(OC)c2)C(C)C)cc1OC (centres undefined) was read as T. gondii 41.7.
CC(=O)N(CC(O)CO)c1c(I)c(C(=O)NCCO)c(I)c(C(=O)NCC(O)CO)c1I (centres undefined) was read as T. gondii -0.5.
`CC(C)N(CCCNC(=O)Nc1ccc(C(C)(C)C)cc1)C[C@H]1O[C@@H](n2cc(Br)c3c(N)ncnc32)[C@H](O)[C@@H]1O` gave T. gondii 27.4.
`C[C@@H]1O[C@@]2(CS1)CN1CCC2CC1` (racemic) gave T. gondii 6.6.
O=C(O)Cc1csc(-c2ccc(Cl)cc2)n1 was read as T. gondii 15.8.
Nc1nc(OCc2ccccc2)c2[nH]cnc2n1 was read as T. gondii 15.0.
`COc1ccc2oc3ccccc3c(=O)c2c1` gave T. gondii 118.0.
For CCNC(=O)N1CCN(CCCC(c2ccc(F)cc2)c2ccc(F)cc2)CC1 the results were T. gondii 22.2.
c1ccc(-c2cc3ccccc3[nH]2)cc1 was read as T. gondii 105.8.
For COC1CCN(C(=O)c2cc(Cc3n[nH]c(=O)c4ccccc34)ccc2F)CC1 the results were T. gondii 11.9.
CCOC(=O)c1cc(C#N)c(N2CCC(C(=O)NS(=O)(=O)Cc3ccccc3)CC2)nc1C was read as T. gondii 13.4.
`CC[C@H]1OC(=O)C[C@@H](O)[C@H](C)[C@@H](O[C@@H]2O[C@H](C)[C@@H](O[C@H]3C[C@@](C)(O)[C@@H](O)[C@H](C)O3)[C@H](N(C)C)[C@H]2O)[C@@H](CC=O)C[C@@H](C)C(=O)/C=C/C(C)=C/[C@@H]1CO[C@@H]1O[C@H](C)[C@@H](O)[C@@H](OC)[C@H]1OC` gave T. gondii -4.2.
For N#Cc1ncccn1 the results were T. gondii 3.9.
Screening Oc1cccc(-c2c3nc(c(-c4cccc(O)c4)c4ccc([nH]4)c(-c4cccc(O)c4)c4nc(c(-c5cccc(O)c5)c5ccc2[nH]5)CC4)C=C3)c1 returned T. gondii 4.1.
For COC1C=COC2(C)Oc3c(C)c(O)c4c(c3C2=O)C2(C=C(NC(=O)/C(C)=C\C=C/C(C)C(O)C(C)C(O)C(C)C(OC(C)=O)C1C)C4=O)OCC(=O)O2 (centres undefined) the results were T. gondii -2.3.
`COc1cc([C@@H]2Oc3c(O)cc([C@H]4Oc5cc(O)cc(O)c5C(=O)[C@@H]4O)cc3[C@H]2CO)ccc1O` gave T. gondii -10.5.
For c1ccc(N2CCN(CCCOc3ccc4c(c3)OCO4)CC2)cc1 the results were T. gondii 13.2.
`O=C(O)COc1ccc(OCCNC[C@@H](O)COc2ccccc2)cc1` gave T. gondii 0.2.
For CC(C)C(=O)OC[C@H]1O[C@@H](n2ccc(N)nc2=O)[C@](C)(F)[C@@H]1OC(=O)C(C)C the results were T. gondii 23.1.
Screening COc1ccc2c(c1)OCC(Cc1ccc(OC)c(OC)c1)C2=O (centres undefined) returned T. gondii -1.1.
CN1CCN(C2=Nc3cc(F)ccc3Cc3ccccc32)CC1 was read as T. gondii -3.9.
Nc1c2c(nc3ccccc13)CCCC2 was read as T. gondii -2.1&-1.5.
Screening COc1ccc(-c2ccc3ncc4c(c3c2)n(-c2ccc(N3CCNCC3)c(C(F)(F)F)c2)c(=O)n4C)cn1 returned T. gondii -88.5*.
Screening CCNC(=O)c1[nH]nc(-c2cc(Cl)c(O)cc2O)c1-c1ccc(OC)cc1 returned T. gondii -37.9.
O=c1c2ccccc2nc2n1CCc1c-2[nH]c2ccccc12 was read as T. gondii 249.2.
For NC1=N[C@@]2(c3cc(NC(=O)c4ccc(F)cn4)ccc3F)COC[C@@H]2CS1 the results were T. gondii -4.8.
Screening CCCn1c(=O)c2[nH]cnc2n(-c2ccc(Cl)cc2)c1=O returned T. gondii 11.0&15.7.
Screening CN(C)CC[C@H](c1ccc(Cl)cc1)c1ccccn1 returned T. gondii 1.2.
CS(=O)(=O)c1ccc(Cn2c3c(c4cc(F)cc(F)c42)CCCC3CC(=O)O)cc1 (centres undefined) was read as T. gondii 1.2&1.1.
Cc1ccc(NC(=O)c2ccc(CN3CCN(C)CC3)cc2)cc1Nc1nc(-c2cccnc2)cs1 was read as T. gondii 47.7.
C[n+]1ccc(C(=O)NCc2ccccc2)cc1 was read as T. gondii 9.9.
`O=C(CN1CCN(Cc2ccc3c(c2)OCO3)CC1)N1c2ccccc2Sc2ccccc21` gave T. gondii 14.3.
For Cc1c(C)c2c(c(C)c1O)CCC(C)(COc1ccc(CC3SC(=O)NC3=O)cc1)O2 (centres undefined) the results were T. gondii -6.4.
For Cc1ccccc1C(=O)c1ccc(Nc2ccc(Br)cc2N)cc1Cl the results were T. gondii 37.8&6.3.
CCN=C1N[C@@H]2[C@@H](O)[C@H](O)[C@@H](CO)O[C@@H]2S1 was read as T. gondii 19.8.
For Cc1nccn1CC1CCC2C(C1=O)c1ccccc1N2C (centres undefined) the results were T. gondii 8.1.
`CC1(C)CCC(C)(C)c2cc(Cn3cccn3)c(/C=C/c3ccc(C(=O)O)cc3)cc21` gave T. gondii 15.2.
OCc1c[nH]c2ccccc12 was read as T. gondii 57.8&2.9.
For O=c1ccc2cc(O)c(O)cc2o1 the results were T. gondii 46.9.
For Nc1cccc2c1CN(C1CCC(=O)NC1=O)C2=O (centres undefined) the results were T. gondii 0.5.
Screening O=C(O)C1=CCCNC1 returned T. gondii 5.8.
Screening OCCN1CCN(CCCN2c3ccccc3C=Cc3ccccc32)CC1 returned T. gondii 19.0.
For O=C(Nc1ccccc1)c1cc([N+](=O)[O-])ccc1Cl the results were T. gondii 9.5&14.5.
`CC(C)N1CCN(c2ccc(C(=O)c3c(-c4ccc(O)cc4)sc4cc(O)ccc34)cc2)CC1` gave T. gondii -13.9&-3.2.
`Cc1c2oc3c(C)ccc(C(=O)OC(C)C4NC(=O)C(C(C)C)N(C)C(=O)CN(C)C(=O)C5CCCN5C(=O)C(C(C)C)NC4=O)c3nc-2c(C(=O)OC(C)C2NC(=O)C(C(C)C)N(C)C(=O)CN(C)C(=O)C3CCCN3C(=O)C(C(C)C)NC2=O)c(N)c1=O` (centres undefined) gave T. gondii -87.1*.
Screening CN1CCN(C2Cc3ccccc3Sc3ccc(Cl)cc32)CC1 (centres undefined) returned T. gondii 8.0.
Screening CC(C)c1ccc2c(c1)CC[C@H]1[C@](C)(CN)CCC[C@]21C returned T. gondii 29.1.
Screening CO[C@H]1C[C@@H]2CC[C@@H](C)[C@@](O)(O2)C(=O)C(=O)N2CCCC[C@H]2C(=O)O[C@H]([C@H](C)C[C@@H]2CC[C@@H](OP(C)(C)=O)[C@H](OC)C2)CC(=O)[C@H](C)/C=C(\C)[C@@H](O)[C@@H](OC)C(=O)[C@H](C)C[C@H](C)/C=C/C=C/C=C/1C returned T. gondii 12.9.
For O=C(CN1C(=O)c2ccccc2S1(=O)=O)Nc1ccc(O)cc1 the results were T. gondii 6.8.
`OC[C@H]1O[C@@H](n2cnc3c(NC4CCCC4)nc(Cl)nc32)[C@H](O)[C@@H]1O` gave T. gondii 3.3.
`CC[C@@H](C(=O)[C@@H](C)[C@@H](O)[C@H](C)[C@@H]1O[C@@H]([C@@H](CC)C(=O)O)CC[C@@H]1C)[C@H]1OC2(C=C[C@@H](O)[C@]3(CC[C@@](C)(C4CC[C@](O)(CC)[C@H](C)O4)O3)O2)[C@H](C)C[C@@H]1C` (some centres undefined) gave T. gondii -90.6*.
`CC1(C)CC(=O)c2c(C(F)(F)F)nn(-c3ccc(C(N)=O)c(NC4CCC(OC(=O)CN)CC4)c3)c2C1` (centres undefined) gave T. gondii -75.4*.
CNC(=O)[C@@H](NC(=O)[C@H](CC(C)C)[C@H](O)C(=O)NO)C(C)(C)C was read as T. gondii 11.5.

Structures from the list above that have a CF3 group, in the order listed:
Screening COc1ccc(-c2ccc3ncc4c(c3c2)n(-c2ccc(N3CCNCC3)c(C(F)(F)F)c2)c(=O)n4C)cn1 returned T. gondii -88.5*.
`CC1(C)CC(=O)c2c(C(F)(F)F)nn(-c3ccc(C(N)=O)c(NC4CCC(OC(=O)CN)CC4)c3)c2C1` (centres undefined) gave T. gondii -75.4*.

New compounds follow.
`O=C(Nc1cccc2cccnc12)c1ccc(N2C(=O)[C@@H]3[C@H](C2=O)[C@@H]2C=C[C@H]3C2)cc1` gave T. gondii 44.7&19.6.
NCCCCNCCCN was read as T. gondii 8.7.
`COCC(=O)O[C@]1(CCN(C)CCCc2nc3ccccc3[nH]2)CCc2cc(F)ccc2[C@@H]1C(C)C` gave T. gondii -72.6*.
`Nc1nc2ccc(Cl)cc2c2nc(-c3ccco3)nn12` gave T. gondii 17.3&4.6.
CCCCNC(=O)c1ccc(Cl)cc1O was read as T. gondii -69.9.
`Nc1ccc(-c2nc3ccc(-c4nc5ccc(N)cc5[nH]4)cc3[nH]2)cc1` gave T. gondii -5.9&0.0.
Screening CCOc1ccc(Cc2cc([C@@H]3O[C@H](SC)[C@@H](O)[C@H](O)[C@H]3O)ccc2Cl)cc1 returned T. gondii 1.9.
For C=C1C(=O)O[C@H]2[C@H]1CC/C(C)=C\CC[C@@]1(C)O[C@@H]21 the results were T. gondii 7.4.
Screening CCCC[C@H](NC(=O)[C@@H]1[C@@H]2[C@H](CN1C(=O)[C@@H](NC(=O)NC1(CS(=O)(=O)C(C)(C)C)CCCCC1)C(C)(C)C)C2(C)C)C(=O)C(=O)NC1CC1 returned T. gondii 23.2.
Screening COc1c2ccoc2c(OC)c2oc(=O)ccc12 returned T. gondii -8.6.
For CCOC(=O)C1=C(C)NC(C)=C(C(=O)OCC)C1c1ccccc1/C=C/C(=O)OC(C)(C)C the results were T. gondii -14.4.
`C/C=C(/C(=C/C)c1ccc(O)cc1)c1ccc(O)cc1` gave T. gondii 0.9&-7.2.
For Nc1nc(Nc2ccccc2)nc2c1ncn2C1OC(CO)C(O)C1O (centres undefined) the results were T. gondii 4.0.
`O=c1c2cc(O)c(O)cc2oc2cc(O)c(C3O[C@H](CO)[C@H](O)[C@@H](O)[C@H]3O)c(O)c12` (some centres undefined) gave T. gondii 3.2.
For Cc1cncc(CN2CCC(=C3c4ccc(Cl)cc4CCc4cccnc43)CC2)c1 the results were T. gondii 9.9.
`c1cc(CN2CCCCC2)cc(OCCCNc2nc3ccccc3s2)c1` gave T. gondii 6.5&20.2.
Screening CC/C=C\C/C=C\C/C=C\C/C=C\C/C=C\C/C=C\CCC(=O)OCC returned T. gondii 5.0.
Screening CC(C)(C)n1nc(-c2ccc(Cl)cc2)c2c(N)ncnc21 returned T. gondii -91.7*.
For Oc1cc2c(cc1O)C(c1ccccc1)CNCC2 (centres undefined) the results were T. gondii 20.2&10.5.
`CC(=O)O[C@H]1C[C@@]2(C)[C@@H](C[C@@H](O)[C@H]3[C@@]4(C)CC[C@@H](O)[C@@H](C)C4CC[C@@]32C)/C1=C(/CCC=C(C)C)C(=O)O` (some centres undefined) gave T. gondii -17.8.

Ordered by count of non-hydrogen atoms (low to high): 4 of the compounds above.
NCCCCNCCCN was read as T. gondii 8.7.
Screening COc1c2ccoc2c(OC)c2oc(=O)ccc12 returned T. gondii -8.6.
For CCOC(=O)C1=C(C)NC(C)=C(C(=O)OCC)C1c1ccccc1/C=C/C(=O)OC(C)(C)C the results were T. gondii -14.4.
`CC(=O)O[C@H]1C[C@@]2(C)[C@@H](C[C@@H](O)[C@H]3[C@@]4(C)CC[C@@H](O)[C@@H](C)C4CC[C@@]32C)/C1=C(/CCC=C(C)C)C(=O)O` (some centres undefined) gave T. gondii -17.8.

(further entries)
CCC1(C)OC(=O)N(C)C1=O (centres undefined) was read as T. gondii -5.4.
Screening CCc1cn([C@H]2C[C@H](O)[C@@H](CO)O2)c(=O)[nH]c1=O returned T. gondii 13.9.
OCCNCCCOc1cccc(Cl)c1Cl was read as T. gondii 19.3&-43.4.
`O=C(O)c1ccccc1-c1c2cc(I)c(=O)c(I)c-2oc2c(I)c(O)c(I)cc12` gave T. gondii -31.3&-6.9.
Screening CCOC(=O)[C@H](CCc1ccccc1)N[C@@H](C)C(=O)N1CCC[C@H]1C(=O)O returned T. gondii 9.1&11.7.
O=C(O)c1ccc(NC(=O)[C@H](Cc2ccc(O)cc2)NC(=O)c2ccccc2)cc1 was read as T. gondii 10.1.
O=C(NN1C(=O)[C@@H]2[C@@H]3C=C[C@@H]([C@H]4C[C@@H]34)[C@@H]2C1=O)c1ccc(C(F)(F)F)cc1 was read as T. gondii 3.9.
`OCCOCCN1CCN(Cc2cccc(Oc3ccccc3)c2)CC1` gave T. gondii 8.7.
`CC(C)NCC(O)COc1ccccc1-n1cccc1` (centres undefined) gave T. gondii 9.0.
`COc1cccc(NC(=O)/C=C/c2ccc(Cl)cc2)c1` gave T. gondii 328.8.
Screening Cc1cccc(C)c1NC(=O)c1ccccc1C(=O)O returned T. gondii -2.3.
For O=c1c(O)c(-c2ccc(O)cc2)oc2cc(O)cc(O)c12 the results were T. gondii 52.9&31.9.
NCCCCCNCC12CC3CC(CC(C3)C1)C2 was read as T. gondii 12.5.

Entries above that have bromine:
`CC(C)N(CCCNC(=O)Nc1ccc(C(C)(C)C)cc1)C[C@H]1O[C@@H](n2cc(Br)c3c(N)ncnc32)[C@H](O)[C@@H]1O` gave T. gondii 27.4.
For Cc1ccccc1C(=O)c1ccc(Nc2ccc(Br)cc2N)cc1Cl the results were T. gondii 37.8&6.3.
